UUG fidelity – alters start codon recognition fidelity in yeast; S. cerevisiae UUG-firefly luciferase reporter, luminescence/redox ratio; activity score, % at 18.7 µM; actives 0.13% (n = 350,000);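 active = replicate mean at a twofold rise or more, about +100% in these data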;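 note: firefly luciferase made from a UUG start codon reports start codon fidelity; reporter light over untreated wells divided by growth signal over untreated wells; some hits fall short of that in this replicate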
CSC inhib – cancer stem cell inhibition. AID 2717. cancer stem cell-like cells viability, luminescence. actives 1.1% (n = 300,000). inhibition, % at 7.5 µM;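 active = mean at 75% or more and at least half the replicates too; inconclusive = mean and replicates disagree; tested in HMLE shEcad cells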;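 note: 0% = median of negative and 100% = median of positive control wells; the first replicate is given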
PABP polyA inh – blocks human PABP binding to poly(A) RNA; P11940; fluorescence polarization; inhibition, % at 35 µM; actives 1% (n = 290,000); AID 2014;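 active = 50% or more with normal probe brightness, or confirmed in later tests; inconclusive = above 50% with abnormal brightness, or retests that disagree; inactive = below 50% or failed in later tests; about a fifth of its hits are not listed in these tables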;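 note: calls also rest on retests at 20 µM and on dose response follow-up; controls were probe without protein and protein plus probe with vehicle; some compounds called inactive have numbers as strong as hits; many hits fall short of the cut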
Rce1 inhib – inhibitors of yeast Ras-converting enzyme. calls only. yeast membranes, quenched prenylated peptide cleavage fluorescence. Q03530. actives 0.27% (n = 290,000). AID 2563;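 active = fall in fluorescence gain of 50% or more versus controls, with final raw signal at or below 3038400; inconclusive = same 50% fall but final raw signal above 3038400; inactive = fall in fluorescence gain under 50%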;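 note: plate controls were neutral control wells for no effect and wells lacking membranes for full effect; tested at 10 µM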
Target sequence (Q03530 whole entry, looked up): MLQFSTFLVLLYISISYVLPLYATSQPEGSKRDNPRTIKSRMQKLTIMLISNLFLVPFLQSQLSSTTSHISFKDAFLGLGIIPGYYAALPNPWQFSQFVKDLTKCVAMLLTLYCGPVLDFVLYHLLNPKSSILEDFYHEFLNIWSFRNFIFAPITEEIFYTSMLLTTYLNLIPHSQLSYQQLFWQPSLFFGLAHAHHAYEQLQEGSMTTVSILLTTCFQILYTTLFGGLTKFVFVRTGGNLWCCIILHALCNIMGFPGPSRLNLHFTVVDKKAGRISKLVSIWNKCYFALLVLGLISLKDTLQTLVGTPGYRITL
MT1-MMP act inh – blocks activation of human MT1-MMP; HT1080 RFP-PRO-GFP cells, GFP/RFP ratio fluorescence, overnight; percent of plate control window, DMSO zero; GFP/RFP ratio change, % at 20 µM; actives 0.061% (n = 360,000); AID 651647;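 active = GFP/RFP ratio change of at least 30% with cell ATP level not reduced by more than half and red fluorescence within 50% of control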; note: strong numbers were not always called active
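Assay system: HT1080 cells carrying an RFP-PRO-GFP reporter | Dosing: Single dose of 20 µM compound, 1% DMSO final | Incubation: Cells overnight before dosing, compound overnight, 37 °C, 5% CO2 | Evaluation: GFP/RFP fluorescence ratio | Control set: DMSO and RFP-L50D-GFP cell wells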
eIF4H inh – inhibitors of RNA binding by human eIF4H. Q15056. actives 0.94% (n = 290,000). eIF4H fluorescence polarization binding assay. inhibition, % at 35 µM;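 active = 50% or more with normal probe brightness, or confirmed in later tests; inconclusive = above 50% with abnormal brightness, or retests that disagree; inactive = below 50% or failed in later tests; about a fifth of its hits are not listed in these tables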;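 note: calls also rest on retests at 20 µM and on dose response follow-up; 0% = protein and probe with vehicle and 100% = probe without protein; strong numbers were not always called active; many hits fall short of the cut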
Env fusion inh – blocks HIV Env-driven cell-cell fusion | HeLa-JRFL Env/CEM21 cell fusion, luciferase | inhibition, % at 12.3 µM | actives 1.1% (n = 360,000);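 active = mean replicate inhibition score of at least 50 and every replicate individually at or above 50; inconclusive = only one of the two criteria met; inactive = mean below 50 and not all replicates reaching 50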;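 note: 0% = plate neutral controls and 100% = maraviroc near 300 nM; one replicate is shown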
MT1-MMP act inh RFP – second read-out of MT1-MMP act inh, no call of its own (marks repeat the call); RFP signal change, %; measured here: RFP expression control read;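 0 = vehicle wells; hits needed this value within 50% of zero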
Active calls of the source: *; i = inactive; ? = inconclusive; . = no result given.

SMILES	UUG fidelity	CSC inhib	PABP polyA inh	Rce1 inhib	MT1-MMP act inh	MT1-MMP act inh RFP	eIF4H inh	Env fusion inh
CCOCCCNC(=O)c1cccc(NC(=O)C2=C(C)OCCS2)c1	-3	-13	-2	i	-1	2	-4	-19
COc1ccc(S(N)(=O)=O)cc1C(=O)OCC(=O)NC(C)(C#N)C1CC1 (stereo unspecified)	-3	3	.	.	-1	0	.	-11
CCOc1ncccc1C(=O)Nc1cccc(-c2nc3cccnc3s2)c1	.	-14	-3	i	3	-1	-14	-11
COc1ccc(N(Cc2cc3cccc(C)c3[nH]c2=O)C(=O)C2CCCO2)cc1 (stereo unspecified)	.	-2	6	i	-2	1	-6	9
O=C1c2ccccc2C(=O)N1CCSc1ccccc1	-40	.	1	i	6	6	2	.
COc1ccccc1OCc1csc(NC(=O)c2ccco2)n1	-11	.	-5	i	-1	-4	-6	.
O=C(NC1CCCCCC1)c1cc(S(=O)(=O)N2CCOCC2)ccc1F	-9	1	-8	i	0	6	-12	-3
Cc1csc(SCC(=O)Nc2cc([N+](=O)[O-])ccc2F)n1	-7	-8	.	.	-1	-3	.	.
CCN(CC)C(=O)c1[nH]cnc1C(=O)Nc1cccc(Cl)c1	-14	-8	.	.	3	1	.	0
Cc1cc(OC(=O)c2ccc(Cl)cc2)cc(=O)n1C	-25	-13	6	i	0	5	-12	.
Cc1cccnc1CNC(=O)C1CCC(=O)N(CCc2cccc(F)c2)C1 (stereo unspecified)	-13	22	9	i	-1	-1	-21	-7
CCN(CC)C(=O)CSC1=N/C(=C/c2ccco2)C(=O)N1c1ccc(OC)c(Cl)c1	-13	6	9	i	-13	-1	19	-25
COc1ccccc1C1CC(=O)Oc2cc(C)c(Cl)c(C)c21 (stereo unspecified)	-23	.	.	.	0	-1	.	-20
COc1ccc(N(C(C)C(=O)N2CCCC2)S(C)(=O)=O)cc1 (stereo unspecified)	-6	-14	1	i	3	3	2	-1
O=C1C=C(c2cc(C(F)(F)F)cc(C(F)(F)F)c2)C[C@@H](c2ccc3c(c2)OCO3)C1	-16	35	.	.	-1	2	.	15
O=C(NCCCN1CCN(c2ccccc2F)CC1)Nc1ccccc1[N+](=O)[O-]	8	-6	-11	i	1	-1	-1	16
O=C(NC1CCS(=O)(=O)C1)/C(=C\c1ccc(F)cc1)NC(=O)c1ccccc1 (stereo unspecified)	.	-2	6	i	2	0	9	11
CCOC(=O)c1ccc(NC(=O)c2cnccn2)cc1	-11	.	-2	i	1	-2	-2	-96
COc1ccc(/C=C(/NC(=O)/C=C/c2ccccc2)C(=O)NCCCCCC(=O)O)cc1	-14	-4	-8	i	1	3	5	-33
O=C(COc1ccc(S(=O)(=O)N2CCOCC2)cc1)NCC1CCCO1 (stereo unspecified)	8	-11	-6	i	-1	0	-4	-21
Cc1c(C(=O)N/N=C/c2ccc(Cl)cc2)[nH]c2ccc(Cl)cc12	.	57	5	i	14	-3	-2	-296
N[C@@H](Cc1ccccc1)C(=O)N1CCC(C(=O)NCC(=O)NCC(=O)O)CC1	-6	-12	10	i	-2	4	-4	7
COc1cc(-c2nnc(COC(=O)c3cc(C)nc4ccc(C)cc34)o2)cc(OC)c1OC	1	-4	-5	i	0	-12	10	.
COc1ccc(N2CCN(C(=O)Cn3cncn3)CC2)cc1	-4	0	24	i	2	2	-4	11
N/C(=N/OCC(=O)Nc1cccc2ccccc12)c1nonc1N	-24	-9	-1	i	8	1	10	-26
More entries
SMILES	UUG fidelity	CSC inhib	PABP polyA inh	Rce1 inhib	MT1-MMP act inh	MT1-MMP act inh RFP	eIF4H inh	Env fusion inh
COc1ccc(Oc2ccccc2C=O)cc1	.	37	4	i	1	0	-5	.
CCCCn1c(N)c(N(CCOC)C(=O)COC(=O)/C=C/c2ccc(Br)cc2)c(=O)[nH]c1=O	-7	1	2	i	-1	-1	-16	-5
COC(=O)N/N=C/c1ccc(-c2ccc(Cl)cc2Cl)o1	-9	-10	2	i	6	2	2	0
O=c1c2cc(Br)ccc2nc(-c2cccc(Cl)c2)n1O	-26	48	3	i	1	-5	4	-12
COc1ccccc1Oc1ncnc2c1oc1ccccc12	.	.	0	i	-3	-1	-7	8
COc1ccccc1Oc1ccc2c(c1)C(=O)N(c1cccc3ncccc13)C2=O	.	.	-2	i	0	-17	2	8
COCCCNc1nc2c(c(=O)[nH]c(=O)n2C)n1CC(O)COc1cccc(C)c1 (stereo unspecified)	3	-5	-2	i	4	6	-2	.
CCOc1ccc(S(=O)(=O)N2CN(c3cccc(C(C)=O)c3)c3nc4ccccc4nc32)cc1	.	4	.	.	-3	-6	.	-3
COc1ccc(C2C(C#N)=C3NC(=O)c4c(sc5c4CCCCC5)N3C3=C2C(=O)CC(C)(C)C3)cc1 (stereo unspecified)	-18	23	22	i	-146	30	12	-54
CCc1ccc(NC(=O)NCC2CCN(Cc3cccc(Cl)c3)CC2)cc1	6	3	-16	i	2	3	-12	6
C/C(=N/O)c1ccc2c(c1)OCCOCCOc1cc(/C(C)=N/O)ccc1OCCOCCO2	.	-9	-3	i	-2	-4	-4	.
CC1CCc2ccccc2N1C(N)=Nc1ccccc1 (stereo unspecified)	-30	5	0	i	-2	0	1	-13
COc1ccc(-c2cn3nc4c(nc3n2)CCCC4)cc1	-10	.	39	.	-2	6	10	.
CCOC(=O)C1CCN(C(=O)CCc2nnc3ccc(N4CCN(C)CC4)nn23)CC1	-17	-8	4	i	11	2	-2	-1
O=C(COC(=O)CCCOc1ccccc1)NC1CCS(=O)(=O)C1 (stereo unspecified)	-17	0	.	i	2	2	.	2
Cn1cc(Cc2ccccc2)c(=O)c(Cc2ccccc2)c1	-7	.	.	.	3	3	.	-11
OCCNc1nc(-c2ccccc2)c2ccccc2n1	-11	8	6	i	2	2	-8	.
COc1ccccc1NC(=O)N1CCc2[nH]c3ccc(F)cc3c2C1	-17	11	86*	i	-1	1	102*	.
COc1ccc(-c2nc(-c3ccccc3)c(-c3cc([N+](=O)[O-])ccc3C)[nH]2)cc1OC	-17	33	-3	i	2	-10	-6	.
O=C(O)c1cccnc1Sc1ccccc1Cl	-10	.	18	i	-2	2	22	-41
CCOc1cc(C=NN2CCCCCC2)ccc1O	1	.	.	.	1	0	.	-1
Clc1ccccc1/C=C/c1ccnc2ccccc12	-16	36	2	i	-4	-5	-3	-18
CC1(c2ccc(O)cc2)NC(=O)N(c2ccccc2)N1 (stereo unspecified)	-18	109*	-8	i	3	4	3	-22
Cc1c(Cl)ccc(S(=O)(=O)N2CCN=C2c2ccccc2)c1Cl	.	-2	1	i	2	-5	-5	.
O=C(NC(=O)c1ccc(F)cc1)Nc1nc(-c2cccs2)cc(C(F)(F)F)n1	-18	-8	-5	i	-3	0	0	0

Among those listed so far, 2 have bromine.
SMILES	UUG fidelity	CSC inhib	PABP polyA inh	Rce1 inhib	MT1-MMP act inh	MT1-MMP act inh RFP	eIF4H inh	Env fusion inh
CCCCn1c(N)c(N(CCOC)C(=O)COC(=O)/C=C/c2ccc(Br)cc2)c(=O)[nH]c1=O	-7	1	2	i	-1	-1	-16	-5
O=c1c2cc(Br)ccc2nc(-c2cccc(Cl)c2)n1O	-26	48	3	i	1	-5	4	-12

Later entries:
SMILES	UUG fidelity	CSC inhib	PABP polyA inh	Rce1 inhib	MT1-MMP act inh	MT1-MMP act inh RFP	eIF4H inh	Env fusion inh
COc1cc(SC)ccc1C(=O)NC(C)C	1	-2	-8	i	2	6	-6	-11
COc1ccccc1NS(=O)(=O)c1cccc(C(=O)N/N=C/c2ccc(C)o2)c1	-2	-13	0	i	-2	5	4	0
CCn1c(C)nc2cc(C(=O)OCCC(F)(F)F)ccc21	-6	-1	6	i	5	7	-8	.
O=C(C1CCCO1)N1CCN(C(=S)Nc2ccc(Cl)c(Cl)c2)CC1 (stereo unspecified)	.	-4	1	i	5	6	-9	12
CCCCN(C(=O)c1cccc(S(=O)(=O)N(C)c2ccc(C)cc2)c1)c1c(N)n(CCCC)c(=O)[nH]c1=O	.	-2	.	i	-28	-17	.	.
CCCCC(=O)N/N=C(\C)CC(=O)Nc1ccccc1Br	.	-7	-2	i	0	2	-3	-5
Cn1nccc1C(=O)Nc1ccc(S(=O)(=O)N2CCCC2)cc1	-12	-9	3	i	1	-2	0	.
Cc1ccc(NC(=O)CSc2nc3ccccc3c(=O)n2CCCC(=O)N2CCCC2)cc1	-8	30	-18	i	-2	-10	-10	23
COc1ccc(CCN(C)C(=O)CN2C(=O)NC3(CCCCC3C)C2=O)cc1OC (stereo unspecified)	.	7	.	i	0	1	.	-14
Cc1ccc(S(=O)(=O)NNC(=O)CCC(=O)Nc2ccc(C)cc2C)cc1	-1	-4	6	i	2	2	0	19
O=C1Nc2ccccc2Oc2cc([N+](=O)[O-])cc(Oc3ccccc3)c21	.	14	-14	i	-107	-18	?	9
Cc1ccc(N=Nc2cc(C)ccc2N)cc1	.	41	-6	i	-4	-8	-5	-170
CC(=O)O[C@H]1CC[C@@]2(C)[C@@H](CC[C@@H]3[C@@H]2CC[C@]2(C)[C@@H](C(C)(C)O)C[C@@H]32)C1	-13	-16	.	i	1	1	.	-1
C=C1CCC[C@]2(C)C[C@H]3OC(=O)C(CNCCN(C)C)[C@H]3CC12 (stereo partly specified)	7	-10	19	i	-4	-4	-2	25
Cc1cc(C)c(C#N)c(N2CCN(CCOc3ccc(Cl)cc3)CC2)n1	.	21	8	i	-3	-6	14	.
O=C(CCn1cnc2ccccc2c1=O)Nc1ccc2c(c1)OCCO2	-10	1	-6	i	0	2	-2	21
COc1ccc(N2CCOCC2)c(NC(=O)c2cccs2)c1	-26	-25	-7	i	-10	-8	1	12
CC1=C(C(=O)Nc2cccc(C(=O)NC3CCCCC3C)c2)SCCO1 (stereo unspecified)	4	-2	10	i	1	-9	-2	11
CCCCCOc1ccc(N2C(=O)C(C)CNC2=S)cc1 (stereo unspecified)	.	-10	5	i	.	.	3	-2
CC(C)(C)NC(=O)NC(=O)COC(=O)Cc1ccc(Cl)cc1Cl	.	-4	8	i	1	2	-11	-9
FC(F)(F)c1ccc(-c2cccc3c2C2CC3CCN2C(=S)NCCc2ccccc2)cc1 (stereo unspecified)	-13	.	.	.	-3	-8	.	7
C=CCN1C(=O)C2(c3ccccc31)C1CCCC=C1C(C#N)=C(N)C2(C#N)C#N (stereo unspecified)	6	-9	17	i	-19	-13	16	-15
O=C(Nc1cccc2c1CCCC2)c1ccncc1	-5	-8	-8	i	.	.	-4	.
O=C1CC2(CCN(C(=O)c3ccccc3Cl)CC2)Oc2ccccc21	1	-10	.	i	-2	-2	.	12
O=C(CSc1nc(-c2ccccc2)cs1)NCc1ccco1	-2	21	-3	i	5	1	-15	.
(continued)
SMILES	UUG fidelity	CSC inhib	PABP polyA inh	Rce1 inhib	MT1-MMP act inh	MT1-MMP act inh RFP	eIF4H inh	Env fusion inh
O=C(NC(CCl)c1ccccc1)c1ccc(Cl)cc1 (stereo unspecified)	4	-14	7	i	0	4	-1	-26
Cc1ccc(C)c2c1cc(C)c1nnc(SCc3ccccn3)n12	-22	-5	5	i	0	-1	-3	-30
CCN(CC)c1ccc(-c2nnc(SCC(=O)Nc3ccccc3C#N)n2-c2ccccc2)cc1	-17	6	6	i	-8	-11	2	.
Cc1cc(NC(=O)NC(=O)c2ccc(F)cc2F)n[nH]1	-52	-11	-7	i	2	3	-4	.
CCOC(=O)c1cccc(NC(=O)CN2C(=O)C3CC=CCC3C2=O)c1 (stereo unspecified)	-8	-8	8	i	0	0	1	.
Cc1ccc(-c2n[nH]c(S(C)(=O)=O)c2C#N)cc1	.	-9	-5	i	-1	0	5	3
COc1cccc(-n2c(CN3CCN(c4ccccn4)CC3)nc3ccc([N+](=O)[O-])cc3c2=O)c1	-8	-14	0	i	-3	1	-7	15

Compound activity (PubChem)
